Assay outcomes: PubChem BioAssay, several laboratories
RanGTP-Impb inh = inhibitors of RanGTP-importin-beta interaction, primary screen, biochemical, FRET, CFP-Ran, YFP-importin-beta, homogeneous. cell-free CFP-Ran/YFP-importin-beta FRET ratio. inhibition, % (test concentration not listed). 300,000 tested, 1.1% active. AID 2216, 2009;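 active means most replicates above 15%; inconclusive means exactly half above 15%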;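 further: 0% = DMSO wells and 100% = Ran loaded with GDP instead of GTP; wells of about 40 µL received 100 nL stock; the first replicate is given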
Bfl-1 A1 inh = caspase 3/7 activation in MEF A1-2A-BIM cells, primary screen, A1 inhibitor project, cell-based, luminescence, HTS; Caspase-Glo 3/7 luminescence, 3 h; percent of clofoctol response, vehicle zero; caspase activation, % (concentration not given with the values); 330,000 tested, 0.066% active;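 active means over half of replicate activation scores above 10%, or exactly half above 10 with the replicate mean above 10; inconclusive means replicate mean below 10 yet half the replicates above 10; inactive means over half of replicates below 10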;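 further: wells of about 30 µL received 50 nL stock; many hits fall short of the cut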
Beta apoptosis = inhibitors of cytokine-induced beta cell apoptosis, primary screen, luminescence; INS-1E cytokine-induced death, ATP luminescence, 48 h; percent of positive-control rescue, neutral wells zero; protection from apoptosis, % (test concentration not listed); AID 435005, 2010; 300,000 tested, 0.8% active;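 active means all replicates at 75% or more, or half of them and the mean; inconclusive means half reach 75% but not the mean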;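 further: 0% = cytokine-treated negative control wells and 100% = positive control rescue; higher means more ATP so stronger rescue from cytokine killing; wells of about 40 µL received 100 nL stock; the first replicate is given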
UCH37 DUB inh = inhibitors of human UCH37 deubiquitinase, primary screen, biochemical, Ub-AMC cleavage, fluorescence; AID 588478, 2011; 330,000 tested, 0.33% active; inhibition, % (test concentration not listed); purified proteasome/UCH37;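 active means mean of two replicates above 20%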;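 further: 0% = compound-free wells with enzyme and 100% = wells lacking proteasome; stock transfer was 100 nL into about 20 µL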
Target sequence (Q9Y5K5 whole entry, looked up): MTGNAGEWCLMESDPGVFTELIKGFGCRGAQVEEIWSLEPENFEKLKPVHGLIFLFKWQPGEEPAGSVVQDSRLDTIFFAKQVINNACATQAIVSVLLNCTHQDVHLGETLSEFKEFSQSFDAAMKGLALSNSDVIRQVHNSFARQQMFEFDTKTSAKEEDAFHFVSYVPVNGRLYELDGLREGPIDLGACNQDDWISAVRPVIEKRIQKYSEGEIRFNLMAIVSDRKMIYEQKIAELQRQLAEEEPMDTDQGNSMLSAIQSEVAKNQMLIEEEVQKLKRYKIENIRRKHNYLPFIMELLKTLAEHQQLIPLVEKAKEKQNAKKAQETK
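Schedule: 30 min plus 25 min, room temperature / Material: human UCH37 within purified proteasomes / Technique: AMC fluorescence intensity at 355/460 nm / Buffer or medium: pH 7.4 Tris-HCl (50 mM) with ovalbumin, ATP-MgCl2, DTT / Controls: wells without proteasome as full block, compound-free enzyme plus substrate as uninhibited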
Beta2AR agonist = beta2AR agonists driving receptor internalization, primary screen, cell-based, FAP fluorogen, flow cytometry; Beta-2 adrenergic receptor (Homo sapiens), P07550; Am2.2-beta2AR cells; reference of the scale not given here; response, % (concentration not given with the values); 340,000 tested, 0.43% active; AID 504454, 2011;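 active means response above a set limit, near 3 SD of response in nonfluorescent compounds, cut at about 42% in these data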;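 further: stock transfer was 100 nL into about 11 µL; a reference agonist was the positive control; negative values mostly stem from fluorescent compounds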
Target sequence (P07550 whole entry, looked up): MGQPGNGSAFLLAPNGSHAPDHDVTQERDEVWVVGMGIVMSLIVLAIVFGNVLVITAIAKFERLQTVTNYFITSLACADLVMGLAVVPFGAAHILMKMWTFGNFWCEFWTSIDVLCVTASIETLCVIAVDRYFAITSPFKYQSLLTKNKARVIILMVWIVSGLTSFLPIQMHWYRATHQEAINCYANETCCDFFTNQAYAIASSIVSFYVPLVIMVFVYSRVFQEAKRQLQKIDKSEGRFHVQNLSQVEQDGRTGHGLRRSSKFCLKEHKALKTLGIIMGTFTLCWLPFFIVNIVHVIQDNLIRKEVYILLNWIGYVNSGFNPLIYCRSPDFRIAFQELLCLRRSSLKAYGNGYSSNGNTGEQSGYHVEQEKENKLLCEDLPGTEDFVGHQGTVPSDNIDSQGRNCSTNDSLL
LANA-H2B inh = blockers of LANA interaction with H2A/H2B – biochemical, FP readout, HTS, primary screen. AID 2629, 2010. inhibition, % (no concentration beside the values). 320,000 tested, 0.6% active. Protein LANA1 (Human herpesvirus 8 type P (isolate GK18)), Q9QR71. cell-free LANA-H2A/H2B peptide, fluorescence polarization; in the data active means inhibition mostly above about 10%, no sharp cut-off; inactive means mostly below about 6.7%;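 further: stock transfer was 7.5 nL into about 10 µL; 0% = median of vehicle wells and 100% = median of positive control wells; one replicate is shown; the record names a cut of 25% in any replicate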
T cruzi repl = inhibitors of intracellular T. cruzi growth, primary screen, luminescence, NIH3T3 host cells; T. cruzi beta-gal in NIH3T3, 90 h; inhibition, % (concentration not given with the values); 300,000 tested, 1.4% active;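 active means mean inhibition across valid replicates above about 55%, limit read from the data; inconclusive means mean below that limit but half or more replicates reach it; inactive means mean below it, under half of replicates reach it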;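 further: signal also drops with host cell toxicity which is not excluded here; 0% = plate median of DMSO wells and 100% = zero luminescence signal; higher percent means less beta-gal luminescence so fewer parasites; stock transfer was 50 nL into about 50 µL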
Calb FLC = C. albicans growth inhibition with fluconazole, primary screen, CaCi-2 strain, Alamar Blue fluorescence; growth inhibition, % (no concentration beside the values); C. albicans CaCi-2 (fluconazole-resistant clinical isolate) + fluconazole, 48 h; 300,000 tested, 0.57% active;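 active means most replicates above 75%; inconclusive means exactly half above 75%; inactive means most below 75%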;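 further: all wells also contain fluconazole at 8 µg/ml as a sub-toxic cotreatment; 0% = median of DMSO wells and 100% = median of geldanamycin control wells; wells of about 8 µL received 7.5 nL stock; the first replicate is given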
The depositor's hits bear a star; ? = inconclusive; / = no result given. Outcome played no part in choosing rows. About 4.3% of those tested had a hit in this group.

SMILES | RanGTP-Impb inh | Bfl-1 A1 inh | Beta apoptosis | UCH37 DUB inh | Beta2AR agonist | LANA-H2B inh | T cruzi repl | Calb FLC
N#C/C(=C\c1c(N2CCC(C(N)=O)CC2)nc2ccccn2c1=O)C(=O)NC1CCCCC1 | 6.4 | -0.7 | -11 | -2.1 | -9 | 2.3 | 17 | 4
COc1ccccc1Nc1nc2ccccc2n1C | -1.4 | -8.5 | / | 4.3 | -3 | 0.7 | 9 | -8
O=C(COC(=O)c1c[nH]c(=O)[nH]c1=O)Nc1ccccc1F | -2.5 | 0.6 | -3 | 3.9 | 0 | -0.7 | -2 | -2
Cn1nnnc1Sc1c(Cl)cccc1[N+](=O)[O-] | 1.3 | 1.0 | -6 | 3.4 | -3 | -464 | -39 | -4
O=C1CCCC(=NNC(=O)c2cc3ccccc3cc2O)C1 | / | -6.5 | -3 | 8.5 | 2 | -9.0 | / | /
O=C(CN1CCC(NC(=O)Nc2ccccc2)CC1)Nc1ccccc1F | 7.8 | -0.3 | 0 | 3.4 | 2 | -1.3 | -2 | 3
C[C@@]12C(=O)Nc3ccc(F)cc3C(=O)N1[C@H]1c3ccccc3OC[C@@H]1[C@@H]2c1ccccc1 | / | 0.0 | 3 | / | -2 | -3.9 | / | /
Cc1cc(NC(=O)CCSc2ccccc2)ccc1Br | ? | 0.5 | -3 | 6.1 | -5 | -5.8 | 6 | -6
COc1ccc(OC)c(-n2c(=S)[nH]c3cc(C(=O)N(C)Cc4ccccc4)ccc3c2=O)c1 | 1.6 | 1.1 | -9 | 5.3 | -17 | -1.7 | 5 | 2
Cc1ccc(N2CCN(C(=S)c3ccc(N(C)C)cc3)CC2)cc1 | -1.2 | -0.8 | 6 | 3.2 | 0 | 0.4 | 46 | -19
COc1ccc(C(=O)NCCNc2ccccc2[N+](=O)[O-])cc1 | -2.5 | 0.6 | -4 | 5.0 | -12 | -1.0 | 3 | 13
O=C(NCCN1CCOCC1)c1cnn2c1NC(c1cccs1)CC2C(F)(F)F (stereo unspecified) | -1.8 | -0.1 | -5 | 5.4 | -4 | -0.7 | -3 | 2
O=C(NCCN1CCN(c2ccccc2F)CC1)C1CCCN(S(=O)(=O)c2cnc[nH]2)C1 (stereo unspecified) | 0.0 | 0.4 | 0 | 2.5 | 1 | 0.4 | 9 | 4
Cc1ccc(/C=N/N(Cc2ccccc2)c2ccccc2)o1 | 7.4 | -0.5 | 4 | / | -2 | 5.0 | 6 | -34
COc1c(S(=O)(=O)NCCCn2ccnc2)ccc(Cl)c1Cl | -0.7 | 0.4 | 0 | 0.5 | -5 | 1.2 | -2 | -3
O=C(COc1ccc2c3c(c(=O)oc2c1)CCCC3)NC(Cc1ccc(Cl)cc1)C(=O)O (stereo unspecified) | 3.3 | 0.2 | 4 | -42 | -9 | 0.9 | ? | -3
COc1ccc(NC(=O)c2cc(C)no2)cc1OC | -2.4 | -0.8 | -10 | 1.8 | -7 | 3.2 | -5 | 2
COc1ccc(Cn2c(SCC#N)nc3ccc(N4CCOCC4)cc3c2=O)cc1 | -1.5 | -0.6 | -10 | -21 | 4 | 0.5 | -5 | 21
COc1ccc(-c2nn(-c3ccccc3)cc2C(=O)N(C)CC(=O)Nc2cccc(F)c2)cc1 | / | 1.0 | 15 | 3.5 | -3 | -4.5 | / | /
Cc1ccc(N2CCN(S(=O)(=O)c3nnc(NC(=O)c4ccco4)s3)CC2)cc1 | -4.6 | 0.4 | -5 | 4.3 | 5 | 4.4 | -9 | -8
COc1ccc(-c2cc(C(=O)N3CCN(c4ccccc4)CC3)c3ccccc3n2)cc1OC | -2.4 | -0.4 | 9 | -9.8 | 24 | / | 13 | -3
Cc1nonc1C(=O)N/N=C/c1ccc(O)cc1 | 1.7 | -8.9 | / | / | -2 | 1.5 | -25 | -1
CC(C)c1cccc(C(C)C)c1NC(=O)CN1C(=O)NC2(CCCCCCC2)C1=O | / | 2.0 | 2 | 4.6 | -2 | -2.9 | / | /
COCCOC(=O)C1=C(C)NC(=O)NC1c1cccc(F)c1 (stereo unspecified) | 3.3 | 0.5 | -5 | -1.0 | 20 | -0.3 | -14 | -14
COc1ccc(NC(=O)C2CCN(S(=O)(=O)c3cccc4nonc34)CC2)c(OC)c1 | -0.6 | -0.5 | -1 | 1.3 | 0 | 0.0 | 13 | 2
COC(=O)C(C(=O)OC)C(C[N+](=O)[O-])c1ccc(O)c(OC)c1 (stereo unspecified) | -0.6 | -0.8 | -2 | 1.0 | 1 | -3.0 | 4 | -4
Cc1ccc(C(=O)O)cc1NC(=S)NC(=O)c1ccc([N+](=O)[O-])c(C)c1 | / | -0.4 | -1 | 4.3 | -2 | 2.9 | -5 | -10
CCOC(=O)Cc1[nH]nc2c1C(c1cc(OC)ccc1OC)C(C#N)=C(N)O2 (stereo unspecified) | -4.6 | -0.3 | 0 | -0.4 | 15 | 2.5 | / | 12
Cn1c(SCc2ccc(F)cc2Cl)nc2ccccc2c1=O | / | -1.9 | 56 | 2.1 | 3 | 1.7 | / | /
O=C(Nc1ccc(NC(=O)C2CC2)nc1)c1cccs1 | -1.6 | 0.4 | -2 | 4.1 | -15 | -2.0 | -7 | 0
CN=C(Nc1cc(C)nn1-c1ccccc1)c1ccccc1 | 7.3 | 0.6 | -4 | 2.7 | -3 | -2.5 | -6 | 1
C=CCNc1cc(C)oc(=O)c1C(=O)CCC | -4.5 | -0.7 | -7 | 5.8 | -18 | -1.1 | -9 | 5
CCN(CC)C1=N/C(=C\c2ccc(OC)cc2)C(=O)N1c1ccccc1 | -1.9 | 0.0 | 3 | -37 | -21 | / | 9 | 0
O=C(Cc1ccc(Cl)cc1)NNC(=O)Nc1cccc2ccccc12 | 0.0 | 1.0 | -8 | -0.3 | -8 | -0.4 | 2 | 5
O=C(COC(=O)c1cccnc1Cl)NC1CCCCCC1 | / | -1.0 | -6 | 2.0 | -4 | -4.3 | / | /
O=C(c1cnn(Cc2ccccc2)c1)N1CCN(S(=O)(=O)/C=C/c2ccccc2)CC1 | / | 1.0 | -6 | 4.4 | 26 | -1.2 | / | /
CC(C)(C)C(=O)Nc1ccc(C(=O)NCc2cccnc2)cc1 | -1.5 | -0.1 | 2 | -2.9 | 5 | -3.9 | -7 | 1
CCSc1nnc(NC(=O)COc2ccc(Cl)cc2)s1 | ? | -0.1 | 0 | -0.5 | 2 | 1.4 | -2 | ?
CCn1c(CNc2ccc(F)cc2)nnc1SCC#N | -0.9 | -0.8 | -11 | 1.0 | -2 | -3.1 | -10 | -5
COc1cc(NC(=O)CCc2c(C)nc3nc(C)nn3c2C)cc(OC)c1 | 0.5 | 0.3 | / | -2.9 | 0 | -4.1 | 5 | -4
O=C(CSc1nc(-c2ccccc2Cl)ns1)NCc1ccco1 | 0.3 | 0.3 | 5 | 1.7 | 1 | 0.1 | 0 | 2
Cc1cc(C)cc(OCC(=O)N/N=C\c2cn(C)nc2C)c1 | 3.5 | -0.5 | -4 | / | -5 | -0.1 | 3 | -5
CCOC(=O)C1CCCN(c2c(Nc3ccc(OCC)cc3)c(=O)c2=O)C1 (stereo unspecified) | ? | 0.3 | -4 | 11 | 1 | 0.5 | -2 | -1
Cc1ccc2cc(CN(Cc3ccco3)C(=O)NCc3ccccc3)c(=O)[nH]c2c1C | 1.3 | -1.3 | -7 | -4.0 | -2 | 2.8 | 11 | -6
Cc1nnc(SCCN2C(=O)c3ccccc3C2=O)[nH]c1=O | 2.4 | -0.2 | / | 5.1 | 7 | -4.1 | -8 | -3
NS(=O)(=O)c1ccc(CCNC(=O)C2(S(=O)(=O)c3ccc(Cl)cc3)CC2)cc1 | 2.1 | 0.1 | -2 | 1.7 | -5 | -3.5 | -2 | -7
CCn1nc(C)cc1C(=O)Sc1cccc(Br)c1 | 1.9 | -0.1 | -15 | 7.2 | -1 | -11 | 13 | -16
COc1ccc(S(=O)(=O)N2CCC(C(=O)NC(c3nc4ccccc4[nH]3)C(C)C)CC2)cc1 (stereo unspecified) | / | -0.1 | -1 | 0.6 | -1 | / | / | /
COc1ccccc1C(=O)Nc1ccc2c(c1)CCCN2C(=O)c1ccccc1 | 2.6 | -13 | 65 | 5.8 | -7 | 2.1 | 11 | -2
Cc1cc(C(F)F)n2nc(C(=O)O)nc2n1 | 1.9 | 0.7 | -2 | 4.2 | 8 | 2.0 | 8 | 12
CN(C)CCOCCOc1ccc(Cl)cc1C(C)(C)C | 5.4 | -0.2 | -3 | 6.1 | 23 | 1.9 | 24 | -6

Grouped by structure: the entries above containing an NH in an aromatic ring
SMILES | RanGTP-Impb inh | Bfl-1 A1 inh | Beta apoptosis | UCH37 DUB inh | Beta2AR agonist | LANA-H2B inh | T cruzi repl | Calb FLC
O=C(COC(=O)c1c[nH]c(=O)[nH]c1=O)Nc1ccccc1F | -2.5 | 0.6 | -3 | 3.9 | 0 | -0.7 | -2 | -2
COc1ccc(OC)c(-n2c(=S)[nH]c3cc(C(=O)N(C)Cc4ccccc4)ccc3c2=O)c1 | 1.6 | 1.1 | -9 | 5.3 | -17 | -1.7 | 5 | 2
O=C(NCCN1CCN(c2ccccc2F)CC1)C1CCCN(S(=O)(=O)c2cnc[nH]2)C1 (stereo unspecified) | 0.0 | 0.4 | 0 | 2.5 | 1 | 0.4 | 9 | 4
CCOC(=O)Cc1[nH]nc2c1C(c1cc(OC)ccc1OC)C(C#N)=C(N)O2 (stereo unspecified) | -4.6 | -0.3 | 0 | -0.4 | 15 | 2.5 | / | 12
Cc1ccc2cc(CN(Cc3ccco3)C(=O)NCc3ccccc3)c(=O)[nH]c2c1C | 1.3 | -1.3 | -7 | -4.0 | -2 | 2.8 | 11 | -6
Cc1nnc(SCCN2C(=O)c3ccccc3C2=O)[nH]c1=O | 2.4 | -0.2 | / | 5.1 | 7 | -4.1 | -8 | -3
COc1ccc(S(=O)(=O)N2CCC(C(=O)NC(c3nc4ccccc4[nH]3)C(C)C)CC2)cc1 (stereo unspecified) | / | -0.1 | -1 | 0.6 | -1 | / | / | /

2 consecutive compounds out of the list so far, for reference:
SMILES | RanGTP-Impb inh | Bfl-1 A1 inh | Beta apoptosis | UCH37 DUB inh | Beta2AR agonist | LANA-H2B inh | T cruzi repl | Calb FLC
NS(=O)(=O)c1ccc(CCNC(=O)C2(S(=O)(=O)c3ccc(Cl)cc3)CC2)cc1 | 2.1 | 0.1 | -2 | 1.7 | -5 | -3.5 | -2 | -7
CCn1nc(C)cc1C(=O)Sc1cccc(Br)c1 | 1.9 | -0.1 | -15 | 7.2 | -1 | -11 | 13 | -16
